gsp antagonist: gsp mutant antagonism. actives 0.4% (n = 340,000). AID 624288. Potency, µM (series often up to 76.9 µM), inactives show at the top dose activity change, negative = inhibition, usual class: inhibitors. gsp-mutant cells, cAMP HTRF, 30 min; control for the full effect not named in the record; active = falling curve of any shape with a large fitted effect; inconclusive = falling curve, mostly with a smaller effect; inactive = flat or rising curve; cell line not stated here;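 further: intracellular cAMP measured with PDE inhibitor Ro 20-1724 present during compound exposure; potency means the concentration at half of the fitted maximal effect; on the % scale 0 is the no-effect control and ±100 the full control effect; nearly all actives have a fitted effect of over 65% in size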
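Measurement of cellular cAMP by homogeneous time-resolved fluorescence following a 30 min compound exposure at 37C. The PDE inhibitor […] was present throughout; the assay buffer was DPBS with 0.05% BSA and 0.005% Tween 20.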
Menin MLL FP FL: inhibitors of human menin-MLL interaction, wild-type MLL peptide; Fluorescence polarization, fluorescein-MLL peptide displacement from menin; FP activity change, % at 61.4 µM; 290,000 tested, under 10 active; inconclusive = falling polarisation curve, or a change in total fluorescence; inactive = total fluorescence flat and polarisation flat or rising; no compound was filed as active; the % refers to the polarisation; negative = inhibition;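 further: % of control where 0% means no effect; inhibitors lower the polarisation; unlabelled MLL peptide was the positive control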
ClpP mod: qHTS Assay for Activators of ClpP | ATP-dependent Clp protease proteolytic subunit (Bacillus subtilis (strain 168)), P80244 | actives 1.9% (n = 340,000) | purified B. subtilis ClpP, FRET peptide cleavage, 20 min | Potency, µM (series often up to 57.5 µM), for inactives: top-dose activity change, negative = active; active = well fitted falling curve with a large enough effect; inconclusive = small, poorly fitted or top-dose-only effect; inactive = no such curve, though single readings can be large or run the other way; further: potency means the concentration at half of the fitted maximal effect; the source files actives as falling curves though it sought activators and does not explain the sign; nearly all actives have a fitted effect of over 65% in size; many hits overshoot -100%
Target sequence (P80244 whole entry, looked up): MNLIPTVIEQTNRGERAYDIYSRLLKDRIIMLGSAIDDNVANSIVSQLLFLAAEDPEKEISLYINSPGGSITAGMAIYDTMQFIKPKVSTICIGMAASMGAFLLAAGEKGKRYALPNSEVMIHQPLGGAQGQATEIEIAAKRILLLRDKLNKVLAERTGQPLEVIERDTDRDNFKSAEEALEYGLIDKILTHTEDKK
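FRET quenching reversal measured ClpP activation: 10 microg/mL B. subtilis ClpP at pH 8 with the FRET-FV decapeptide, read at 430 nm after 320 nm excitation. The 20-min minus 0-min signal was scaled between DMSO/no-enzyme wells and ADEP (5.8 microM final).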
TRPV1 potentiator: potentiators of human vanilloid receptor 1 (TRPV1). actives 0.02% (n = 320,000). Q8NER1. potentiation, % at 8.33 µM. TRPV1-expressing cells, Fluo-8 calcium influx, capsaicin EC20 potentiation; host cell line not named in the record; control for the full effect not named in the record; active means potentiation above 80%; inconclusive means 30% to 80%; inactive means below 30%; further: 0% is about no effect
Target sequence (Q8NER1 whole entry, looked up): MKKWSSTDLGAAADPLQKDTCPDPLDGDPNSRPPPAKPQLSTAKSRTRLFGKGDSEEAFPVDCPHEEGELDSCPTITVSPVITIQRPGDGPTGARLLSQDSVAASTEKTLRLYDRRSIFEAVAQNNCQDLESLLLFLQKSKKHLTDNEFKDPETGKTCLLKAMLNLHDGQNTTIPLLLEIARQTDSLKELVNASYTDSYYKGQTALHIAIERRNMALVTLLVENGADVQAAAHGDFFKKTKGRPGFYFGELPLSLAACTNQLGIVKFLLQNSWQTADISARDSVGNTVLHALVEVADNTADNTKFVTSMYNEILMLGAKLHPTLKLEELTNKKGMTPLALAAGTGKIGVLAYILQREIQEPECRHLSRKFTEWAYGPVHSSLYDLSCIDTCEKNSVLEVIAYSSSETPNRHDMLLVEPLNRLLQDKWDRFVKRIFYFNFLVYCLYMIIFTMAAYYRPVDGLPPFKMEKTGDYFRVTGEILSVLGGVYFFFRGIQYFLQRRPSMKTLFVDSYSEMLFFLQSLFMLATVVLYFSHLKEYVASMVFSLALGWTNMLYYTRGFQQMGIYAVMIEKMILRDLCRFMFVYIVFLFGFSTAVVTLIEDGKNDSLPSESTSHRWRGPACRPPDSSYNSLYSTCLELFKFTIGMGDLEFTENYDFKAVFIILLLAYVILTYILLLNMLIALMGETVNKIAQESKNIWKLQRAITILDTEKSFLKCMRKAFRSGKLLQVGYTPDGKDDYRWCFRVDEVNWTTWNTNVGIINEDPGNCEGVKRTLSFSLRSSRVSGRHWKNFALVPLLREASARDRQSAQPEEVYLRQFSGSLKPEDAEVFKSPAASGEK
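Cells expressing TRPV1 were dye-loaded with Fluo-8 and read kinetically: 10 s baseline, 3 min after compound (agonist portion), then 2 min after EC20 capsaicin (allosteric enhancer portion). Calcium-bound dye fluorescence at 480/520 nm.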
Sfp inh: Sfp phosphopantetheinyl transferase inhibition; actives 3.5% (n = 310,000); Biochemical Sfp PPTase activity, qHTS; Potency, µM, for inactives: max response, negative = inhibition, actives largely listed as inhibitors; active means well fitted inhibition curve with a large enough effect; inconclusive means small, poorly fitted or top-dose-only effect, or another doubt; inactive means no such curve, though single readings can be large or run the other way;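 further: the enzyme is Sfp with the accession as filed and its product quenches rhodamine fluorescence; potency means the concentration at half of the fitted maximal effect; 0% = enzyme reaction without inhibitor and -100% = no enzyme wells; top concentration of the series not given in the record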
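Fluorescence-quenching assay with 15 nM Sfp, 5 uM rhodamine-CoA and 12.5 uM BHQ-2-labelled ybbR peptide in pH 7.6 Hepes/MgCl2 buffer. Enzyme was pre-incubated with compound for 15 min at room temperature. Rate was taken from the 30-min fluorescence change (525/598 nm).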
CtBP-E1A inh: CtBP/E1A binding inhibition; actives 0.49% (n = 340,000); activity change, % (concentration not given with the values); AlphaScreen GST-E1A/His-CtBP binding, 1536-well; hits give low values; control for the full effect not named in the record; in the data active means activity change below about -65%; inconclusive means about -30% to -65%; inactive means above about -30%; further: on the % scale 0 is the no-effect control and ±100 the full control effect
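Protein mix (5X: 125 nM each GST-E1A, His-CtBP) was incubated with pinned compound 2 h at 37 deg C in dark, in 50 mM Tris pH 8.0 buffer with 300 mM NaCl. Glutathione donor and nickel acceptor beads followed; AlphaScreen signal read after 1 h.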
gsp ag: gsp mutant agonism; gsp mutant cells, cAMP HTRF, 30 min; control for the full effect not named in the record; Potency, µM (doses to about 76.9 µM), for inactives: top-dose activation (cAMP increase), actives largely listed as activators; actives 0.13% (n = 340,000); AID 624287; active = well fitted activation curve with a large enough effect; inconclusive = small, poorly fitted or top-dose-only effect, or another doubt; inactive = no such curve, though single readings can be large or run the other way; cell line not stated here;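 further: phosphodiesterase inhibitor Ro 20-1724 added with compounds to block cAMP breakdown; potency means the concentration at half of the fitted maximal effect; nearly all actives have a fitted effect of over 60% in size; about a fifth of the inactives were tested at one dose only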
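Cells stably selected in G418 were plated at 2000/well, grown 16-24 hr, then given compounds in DMSO with the PDE inhibitor […] (300 uM solution added) for 30 min at 37C; cAMP was read by HTRF.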
The depositor's hits bear a star; ? = inconclusive; nt = no result given; [ ] = remark or other dose.

Values run as follows: gsp antagonist, Menin MLL FP FL, ClpP mod, TRPV1 potentiator, Sfp inh, CtBP-E1A inh, gsp ag
O=C1S/C(=C\c2ccc(N3CCOCC3)o2)C(=O)N1Cc1c(F)cccc1Cl
  2%, ?, 1.0%, -7, 2.8µM*, 9, -47%[inhibitor]
Cc1ccc(NC(=O)CC2CS(=O)(=O)CC2CC(=O)Nc2ccc(C)c(C)c2)cc1C (configuration not stated)
  6%, 7.8, 0.0%, 3, 13%, 9, 23%
Cc1ccc(S(=O)(=O)N/N=C/c2ccccc2O)cc1[N+](=O)[O-]
  -12%, -2.9, -0.5%, 3, 10%, 0, -2%[15.4 µM]
O=C(CSc1ncnc2c1oc1ccccc12)Nc1cccc(C(F)(F)F)c1
  ?, 8.7, 8.4%, -4, 11%, 1, -68%[inhibitor]
CN(C)/C=N/c1nc2nccc(-c3ccccn3)n2n1
  -7%, -1.4, nt, -16, 13%, -2, 6%[15.4 µM]
Cc1ccc(N(CC(=O)Nc2ccc(F)cc2)S(=O)(=O)N2CCCC2)cc1
  -13%, 0.2, 0.8%, 9, 8%, 2, 5%
O=C(CSc1ncccn1)NC(=O)Cc1ccccc1
  13%, nt, 0.8%, -5, nt, -2, -13%
O=C(O)CCC(=O)N1CCc2cc(S(=O)(=O)N3CCN(c4ccc(F)cc4)CC3)ccc21
  11%, 7.6, 1.5%, -1, -20%, 21, -20%
CCC(C)(C(=O)NC1CCCCC1)N(C(=O)CNC(=O)c1ccccc1)c1c(C)n(C)n(-c2ccccc2)c1=O (configuration not stated)
  2%, -1.3, nt, 8, 20%, 5, 0%[15.4 µM]
C/C=C(\C)c1nnc(NC(=O)C(C)C)s1
  7%, -0.8, -6.8%, -13, 18%, 0, -37%[inhibitor]
COc1ccc(C)cc1NC(=O)CSc1nnc(-c2ccco2)n1N
  6%, 4.9, -0.9%, ?, 8%, -11, 2%
CCOC(=O)c1c(S(=O)(=O)NCC(=O)N2CCN(c3cccc(OC)c3)CC2)c(C)n(C)c1C
  -13%, -0.2, -0.8%, -2, 11%, -3, 20%
COC(=O)C(C)Sc1nc2ccsc2c(=O)n1Cc1ccccc1 (configuration not stated)
  -25%, 5.6, nt, -2, 3%, -1, 11%[15.4 µM]
CCOc1cc(/C=N\Nc2nc(-c3ccc(C)cc3)c(NC(C)=O)s2)ccc1O
  -25%, 3.6, nt, 4, -11%, ?, -11%[15.4 µM]
CCOn1c(SCC)nc2ccccc2c1=O
  7%, 0.5, -1.0%, ?, 3%, 12, 7%
CN(CCO)c1ccc([N+](=O)[O-])cc1C(=O)O
  6%, 9.5, 2.0%, 0, 19%, -1, -6%
COc1ccc(NS(=O)(=O)c2cc(C)ccc2NC(=O)c2cc(C)oc2C)cc1
  7%, 4.4, -0.5%, -5, -7%, -9, 20%
O=C(CCOc1ccccc1)Nc1cccc([N+](=O)[O-])c1
  -4%, 1.5, nt, -19, 16%, -1, 18%
CCN(CC)S(=O)(=O)c1cccc(C(=O)N/N=C/c2cc(OC)c(O)c(OC)c2)c1
  7%, 0.4, -1.4%, -11, -9%, -24, -14%
O=C(c1ccc2ccccc2n1)N1CCN(c2ccccn2)CC1
  3%, 3.4, -0.5%, 1, -4%, 5, -4%[15.4 µM]
COc1ccc(OCC(=O)NCCCNC(=O)COc2ccc(OC)cc2)cc1
  19%, nt, -9.4%, 5, nt, 5, -12%
CC(=O)Nc1cccc(NS(=O)(=O)c2c(C)noc2C)c1
  8%, nt, -19%, nt, nt, 11, 9%
C#CCOC(=O)c1ccccc1C(=O)OCC#C
  4%[15.4 µM], -2.5, 1.0%, 8, 17%, 6, -3%
CCN(Cc1ccc(N(C)C)cc1)C(C)C(=O)Nc1ccc(S(=O)(=O)N2CCCC2)cc1 (configuration not stated)
  -16%, nt, -24%, 13, nt, ?, ?
O=C(COc1ccc2c3c(c(=O)oc2c1)CCC3)c1ccc2c(c1)OCO2
  2%, 2.2, 3.6%, 7, 10%, 6, -7%
CCc1ccc(-c2nc(CS(=O)CC(=O)NCc3ccc4c(c3)OCO4)c(C)o2)cc1 (configuration not stated)
  -5%, nt, -7.8%, 22, -5%, -7, ?
Cc1ccc(S(=O)(=O)N(CC(=O)NCc2ccncc2)Cc2ccccc2F)cc1
  -2%, nt, nt, -6, 12%, 0, 6%[15.4 µM]
CC(=O)c1c(C)[nH]c(C(=O)COC(=O)c2cccs2)c1C
  3%, nt, -5.2%, nt, nt, -15, -7%
COc1cc(C2c3c(-c4cc(Cl)c(C)cc4O)n[nH]c3C(=O)N2Cc2cccnc2)ccc1O (configuration not stated)
  6%, 1.0, 0.0%, 1, 13%, -4, 9%[15.4 µM]
CC1CCc2sc(C(=O)NNS(=O)(=O)c3ccc(F)c(F)c3F)cc2C1 (configuration not stated)
  1%, nt, 2.0%, 18, nt, 0, -13%[15.4 µM]
O=S(=O)(NCc1ccccc1)c1ccc(S(=O)(=O)N2CCCCC2)cc1
  8%, 4.1, 0.3%, 2, 10%, 4, -3%
CCOC(=O)C1CCN(C(=O)c2ccccc2N(C)S(C)(=O)=O)CC1
  8%, 1.2, -2.6%, 7, 12%, 9, -94%[inhibitor]
COc1ccc(N2CCN(c3ccc([N+](=O)[O-])cc3Cl)CC2)cc1
  13%, 6.5, 1.5%, 1, 2%, -3, 4%
C=C1C[C@@]23CCC4[C@@](C)(CCC[C@@]4(C)C(=O)O)C2CC[C@]1(O)C3 (some centres not stated)
  5%, nt, -0.3%, -5, nt, 0, nt
CCN(CC(=O)Nc1ccc(NC(C)=O)cc1)C(=O)c1cc2c(s1)CCCCC2
  2%, nt, 0.5%, 0, nt, 6, 25%
O=C(CSc1ncn(-c2ccccc2)n1)Nc1nncs1
  -25%, 2.9, -0.4%, 4, 0%, nt, 5%
c1ccc(Nc2nc3ccccc3n3nnnc23)cc1
  -3%, ?, 16%, 7, -2%, 9, 6%
COC(=O)c1ccc(/C=C2\SC(=S)N(CCCC(=O)N3CCOCC3)C2=O)cc1
  1%, nt, nt, nt, nt, 5, -10%
N#CCSc1ccc2nc(-c3ccccc3)cn2n1
  0%, 0.2, 3.4%, 10, 5%, nt, -16%
CCOc1cc(Br)c(CN2C(=O)NC3(CCCCCC3)C2=O)cc1OCC
  5%, -2.5, nt, -13, -11%, -9, -5%[15.4 µM]
CC(C)CC(=O)NC(=S)N(Cc1ccccc1)Cc1ccccc1
  -3%, 10, 0.2%, -11, 19%, 12, -8%[15.4 µM]
COC(=O)c1ccc(Cl)c(NC(=O)NC2CCCCC2)c1
  -2%, 7.4, -0.9%, -23, 15%, 1, -35%[inhibitor]
CCN(CC)CCNC(=O)c1ccc(NC(=O)COc2ccccc2F)cc1
  9%, -5.8, 0.3%, -13, 11%, nt, -47%[inhibitor]
O=C(Nc1ccc(-c2noc(CCc3ccccc3)n2)cc1)c1ccco1
  ?, 0.2, -1.3%, -3, -4%, 1, -45%[inhibitor]
S=C(Nc1nc2c(s1)CCCC2)NC1CC1
  6%, -1.8, 0.6%, -16, -29%, 1, 22%
OCC[C@H]1C[C@@H](O)[C@H](O)[C@@]2(OCCc3ccccc32)O1
  -6%, nt, -0.8%, -40, nt, -1, 13%
CCc1cccc(C)c1NC(=S)N(CCCN1CCOCC1)Cc1cccnc1
  -3%, 0.5, nt, 2, ?, 0, 3%[15.4 µM]
CCOC(=O)c1c(NC(=O)COC(=O)/C=C/c2ccco2)sc2c1CC(C)(C)NC2(C)C
  -17%, nt, -2.4%, 14, nt, -27, 0%
Cc1onc(-c2ccccc2Cl)c1C(=O)Nc1ccc(-n2nncc2C(C)(C)C)cc1
  -9%, 0.5, 0.3%, 6, 1%, 5, -28%
COc1cc(C(=O)NCC(c2cccs2)N2CCOCC2)ccc1OCc1ccc(Cl)cc1 (configuration not stated)
  nt, nt, -3.4%, nt, nt, 0, 0%
OC(CN1CCCC(C(F)(F)F)C1)c1ccccc1 (configuration not stated)
  -1%, 1.2, nt, 4, 5%, -4, 4%
CSCCC(NC(=O)c1cccc(C)c1)C(=O)NCc1cccs1 (configuration not stated)
  0%, nt, 2.9%, nt, nt, 1, 29%
CCCN(CCC)C(=O)C1CC(=O)OC12CCCCC2 (configuration not stated)
  6%, 1.7, nt, -1, 5%, 0, -15%
O=C(NCC1CCCO1)Nc1ccc2c(c1)OCO2 (configuration not stated)
  5%, 1.2, 0.4%, -2, 12%, 4, ?
CCOc1ccccc1C(=O)OCC(=O)NCCNC(=O)COC(=O)c1ccccc1OCC
  20%, nt, -12%, 1, 3%, 3, 12%[15.4 µM]
O=C1CCCN1C(=O)CSc1nnnn1-c1ccccc1
  3%, nt, 0.0%, 4, nt, nt, ?
NC(N)=NC(=S)Nc1ccc(Cl)cc1
  5%, -4.8, nt, 6, -5%, -1, 11%
O=[N+]([O-])c1ccccc1OCCOc1ccccc1[N+](=O)[O-]
  10%, 0.6, -1.0%, 2, 1%, 5, 14%[15.4 µM]
COc1ccc(CCNC(=O)Cc2ccc(C)cc2)cc1OC
  5%, 3.3, -6.5%, -11, 40µM*, -3, -54%[15.4 µM]
O=C1C(c2ccc(F)cc2)N(Cc2ccc3c(c2)OCO3)C(=O)CN1C1CCCCCC1 (configuration not stated)
  -16%, -2.0, -2.1%, -24, 12%, -3, -44%
C/C(=N\NC(=O)c1cccs1)C(C)(C)C
  18%, 2.9, 1.5%, 1, -4%, -12, 0%
CC(=O)Nc1ccc(S(=O)(=O)NCC(=O)NC(C)c2ccc(S(N)(=O)=O)cc2)cc1 (configuration not stated)
  3%, 0.3, nt, -22, 11%, 0, -5%[15.4 µM]

Screens deposited in PubChem by National Center for Advancing Translational Sciences (NCATS).
